Screens (PubChem BioAssay)
VDR inhibitor – inhibitors of human vitamin D receptor. 0.93% of 400,000 active. Potency, µM, for the others: max response, negative = inhibition, usual class: inhibitors. VDR-SRC2-3 peptide fluorescence polarization, 2 h; active = well fitted inhibition curve with a large enough effect; inconclusive = small, poorly fitted or top-dose-only effect, or another doubt; inactive = no such curve, though single readings can be large or run the other way; note: series mostly up to about 120 µM
Target sequence (P11473 whole entry, looked up): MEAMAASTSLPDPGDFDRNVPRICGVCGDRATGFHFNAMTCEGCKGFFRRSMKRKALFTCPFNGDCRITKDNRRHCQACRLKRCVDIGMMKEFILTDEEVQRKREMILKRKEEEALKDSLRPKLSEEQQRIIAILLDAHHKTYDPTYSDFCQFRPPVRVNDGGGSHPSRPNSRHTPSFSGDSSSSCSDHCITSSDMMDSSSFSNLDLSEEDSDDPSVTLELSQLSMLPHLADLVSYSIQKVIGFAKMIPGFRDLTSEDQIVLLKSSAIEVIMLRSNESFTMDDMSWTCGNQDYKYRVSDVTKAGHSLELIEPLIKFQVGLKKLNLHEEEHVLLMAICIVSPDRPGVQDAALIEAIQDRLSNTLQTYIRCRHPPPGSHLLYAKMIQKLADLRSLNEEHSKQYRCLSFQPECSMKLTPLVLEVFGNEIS
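Fluorescence polarization assay of small-molecule disruption of VDR binding to coregulator peptide SRC2-3. Compounds and controls pin-transferred, then read after 2 h incubation at ambient room temperature.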
* hit, by the source's call; ? = inconclusive; & = joins results of further samples; [ ] = remark or other dose. % is set by controls: 0 for no effect and ±100 for the full control effect; potency is the fitted concentration of half-maximal effect.

The first seven entries (preview)
SMILES	VDR inhibitor
COc1cc(C2C(C#N)=C(C)NC(C)=C2C#N)cc(OC)c1OC	-9%
COc1ccccc1CCN=C(N)NS(=O)(=O)c1cccs1	16%
Cc1ccc(-c2noc(CNC(=O)c3ccoc3C)n2)cc1	3%
COc1ccc(N2CCN(C(=O)Cn3nc(Cc4cccnc4)c4ccccc4c3=O)CC2)cc1	-12%
Cc1c(N2C(=O)/C(=C\c3ccc(N(C)C)cc3)N(C)C2=S)c(=O)n(-c2ccccc2)n1C	-14%
CCn1c(SCC(=O)N2CCOCC2)nc2c([nH]c3ccccc32)c1=O	7%
COc1ccc([C@H]2CC(=O)C=C(c3ccc(F)cc3OCc3ccccc3)C2)cc1	-5%

Main list, from the first entry:
SMILES	VDR inhibitor
COc1cc(C2C(C#N)=C(C)NC(C)=C2C#N)cc(OC)c1OC	-9%
COc1ccccc1CCN=C(N)NS(=O)(=O)c1cccs1	16%
Cc1ccc(-c2noc(CNC(=O)c3ccoc3C)n2)cc1	3%
COc1ccc(N2CCN(C(=O)Cn3nc(Cc4cccnc4)c4ccccc4c3=O)CC2)cc1	-12%
Cc1c(N2C(=O)/C(=C\c3ccc(N(C)C)cc3)N(C)C2=S)c(=O)n(-c2ccccc2)n1C	-14%
CCn1c(SCC(=O)N2CCOCC2)nc2c([nH]c3ccccc32)c1=O	7%
COc1ccc([C@H]2CC(=O)C=C(c3ccc(F)cc3OCc3ccccc3)C2)cc1	-5%
COc1cccc(C(=O)NCC(=O)NCc2cc(=O)n(C)c(=O)n2C)c1OC	-6%
COc1ccc(NS(=O)(=O)c2cc(NC(=O)c3ccc(F)cc3)ccc2OC)cc1	-17%
O=C(COc1ccc(F)cc1)NNC(=O)c1cc2ccccc2oc1=O	-19%
O=C(N/N=C/c1cnc(N2CCCCC2)s1)c1ccc(C(F)(F)F)cc1	-1%
C#CCOCCOCCOCCNc1nc(N2CCN(C(=O)Cn3cc(CCCN=C(N)N)nn3)CC2)nc(N2CCN(C(=O)Cn3cc(CC(C)O)nn3)CC2)n1 (stereo not drawn)	-2%
Cc1nc(N[C@@H](Cc2ccccc2)C(=O)O)c2oc3ccccc3c2n1	-7%
COc1cccc(NC(=O)CN2C(=O)CSc3ccc(S(=O)(=O)N4CCC(C)CC4)cc32)c1	-3%
CCOc1ccc(N2C(=O)CC(N3CCN(c4ccccc4F)CC3)C2=O)cc1 (stereo not drawn)	-13%
CCN1C[C@@H]2[C@@H]3C(=O)N(Cc4ccccc4)C(=O)[C@@H]3[C@](Cc3ccccc3)(C1=O)N2C(=O)c1ccc(Cl)cc1	-9%
CC1CCN(C(=O)c2ccc(S(=O)(=O)N3CCCCCC3)cc2)CC1	-1%
O=C(O)c1ccc(Nc2nc(-c3ccccc3)nc3ccccc23)cc1	79µM*
CCc1ccc2c(CC(=O)Nc3cccc(S(=O)(=O)N4CCOCC4)c3)coc2c1	-10%
NN/C(=C\[N+](=O)[O-])Nc1ccccc1	-12%

4 entries from above, set out differently.
C#CCOCCOCCOCCNc1nc(N2CCN(C(=O)Cn3cc(CCCN=C(N)N)nn3)CC2)nc(N2CCN(C(=O)Cn3cc(CC(C)O)nn3)CC2)n1 (stereo not drawn)
  VDR inhibitor = -2%

Cc1nc(N[C@@H](Cc2ccccc2)C(=O)O)c2oc3ccccc3c2n1
  VDR inhibitor = -7%

COc1cccc(NC(=O)CN2C(=O)CSc3ccc(S(=O)(=O)N4CCC(C)CC4)cc32)c1
  VDR inhibitor = -3%

CCOc1ccc(N2C(=O)CC(N3CCN(c4ccccc4F)CC3)C2=O)cc1 (stereo not drawn)
  VDR inhibitor = -13%

Next compounds:
SMILES	VDR inhibitor
Cc1cccc(NC(=O)c2cc(Cl)ccc2[N+](=O)[O-])c1	-11%
C=CCn1c(SCc2ccc3nonc3c2)nnc1-c1cccs1	23%
O=C(NCc1ccco1)C1CCCN(S(=O)(=O)c2cccc3cccnc23)C1 (stereo not drawn)	13%
COc1ccccc1CN1CC(C(=O)N(C)CCOc2ccccc2)CCC1=O (stereo not drawn)	-6%
COc1ccc(CC(=O)Nc2nc(C)cs2)cc1S(=O)(=O)N1CCOCC1	6%
CC(C)Oc1ccc(C(=O)NC(Cc2c[nH]c3ccccc23)C(=O)NN)cc1 (stereo not drawn)	7%
CN(c1ccccc1)S(=O)(=O)c1ccc(Cl)c(C(=O)OCC(=O)N2CCOCC2)c1	4%
O=C(O)c1ccccc1Nc1cc(Cl)c2nonc2c1[N+](=O)[O-]	35µM*
CC1(C)CC(=O)C(C(c2ccncc2)C2C(=O)CC(C)(C)CC2=O)C(=O)C1	10%
CCN(CC)CCC(O)(c1ccc2c(c1)OCO2)c1cc(OC)c(OC)c(OC)c1 (stereo not drawn)	-5%
Cc1cc(-c2ccc(S(=O)(=O)N3CCN(c4ccccc4F)CC3)s2)on1	-6%
O=C(CN1CCN(c2ccccc2)CC1)Nc1ccc2c(c1)OCCO2	-7%
COC(=O)C1CC(O)CN1C(=O)c1ccco1 (stereo not drawn)	-10%
CN(Cc1ccccc1)C(=O)CSc1nc2cc(C(=O)N3CCC(C(N)=O)CC3)ccc2c(=O)n1-c1ccccc1	-24%
CC(NC(=O)CCNS(=O)(=O)c1cccc2nsnc12)c1ccccc1 (stereo not drawn)	3%&-8%
O=C(c1ccco1)N1CCN(/C=C2\Nc3ccccc3C(=O)N2c2ccc(F)cc2)CC1	1%
Cc1noc(C)c1Cc1ccc(O)cc1	-17%
Cc1ccccc1-c1noc(C23CC4CC(CC(C4)C2)C3)n1	9%
COCCn1c(=O)c(C)nc2cnc(N3CCOCC3)nc21	3%
COc1ccc(CCn2nnnc2C(CC(C)C)N2CCN(c3ncccn3)CC2)cc1OC (stereo not drawn)	-3%
O=C(/C=C/c1cccc([N+](=O)[O-])c1)Nc1cc(C(=O)O)cc(C(=O)O)c1	35µM*
Cc1cccc(NC(=O)CSCC(=O)Nc2ccc(S(=O)(=O)N3CCCCC3)cc2)c1	-3%
O=C(Oc1ccccc1)N1CCN(C(=O)c2ccco2)CC1	-2%
O=C(O)COc1ccc(S(=O)(=O)NCCc2ccccc2)cc1	-14%
O=c1[nH]c2ccc(S(=O)(=O)N3CCCCC3)cc2[nH]c1=O	-16%
CCCN1Cc2cccc(C(=O)Nc3cccc(C(=O)OCC)c3)c2C1=O	3%
O=C(O)C1=C[C@H](c2ccc3c(c2)OCO3)C[C@H](OCc2ccc(CO)cc2)O1	?
CCC(=O)N1CCN(c2ccccc2NC(=O)Cc2ccccc2)CC1	20%
C/C(=N/NC(=O)Nc1ccccc1)c1ccc(C)cc1	0%
COc1ccc(N2CC(NS(=O)(=O)c3ccc4ccccc4c3)CC2=O)cc1OC (stereo not drawn)	6%
CN(Cc1ccccc1)S(=O)(=O)c1ccc(NC(=S)NC(=O)C2CCCCC2)cc1	-11%
Cc1ccc(OCC(=O)NNC(=O)c2ccoc2C)c(Br)c1	-2%
Cc1c(NC(=O)c2cc(-c3ccc(Br)cc3)on2)c(=O)n(-c2ccccc2)n1C	?
CC(=O)Nc1ccc(NC(=O)C(C)N2CCN(S(=O)(=O)c3ccc(C)cc3)CC2)cc1 (stereo not drawn)	17%
O=C(CCC(=O)N1CCOc2ccc(Cl)cc21)NCc1ccccc1	-20%
O=C1C=C(OCc2ccccc2)CN1	14%
CC(=O)c1c(C)[nH]c(C2=NNC(=NCc3ccccc3)SC2)c1C	-12%
CCCCOc1ccc(S(=O)(=O)NCc2csc(-c3ccc(OC)cc3)n2)cc1	-8%
N#Cc1ccccc1S(=O)(=O)N1CCN(C(=O)CN2C(=O)NC3(CCCC3)C2=O)CC1	1%
O=C(c1cccc([N+](=O)[O-])c1)N1CCN(c2ccc(N3CCOCC3)nn2)CC1	-11%
Cc1cc(C(=O)Nc2sccc2C#N)c2ccccc2n1	33%[activator]
O=C(CCSCc1ccccc1Cl)N1CCN(c2ccccn2)CC1	-7%
CC(=O)NC12CC3CC(C1)CC(C(=O)N(C)Cc1cccc(Cl)c1Cl)(C3)C2	1%
Cc1cccc(NC(=O)C2CCC(CNS(=O)(=O)c3ccc4c(c3)CCCC(=O)N4)CC2)c1C (stereo not drawn)	-6%
CSc1ccc(CSCC(=O)N2CCN(S(=O)(=O)c3ccc(C)cc3C)CC2)cc1	6%
CC(Nc1cc(=O)n(C)c(=O)n1C)c1ccccc1 (stereo not drawn)	0%
N#C/C(=C\c1ccc(O)c([N+](=O)[O-])c1)C(=O)NCc1ccccc1	-15%
S=c1[nH]nc(Nc2ccccc2Cl)s1	-11%
CC(=O)Nc1ccccc1OCC(=O)NC1CCCCC1C (stereo not drawn)	-10%
Cc1cccc(-c2nc(CS(=O)CC(=O)NC(C)CCc3ccccc3)c(C)o2)c1 (stereo not drawn)	-16%
Additional entries.
SMILES	VDR inhibitor
Cc1ccc(C2=NNC(c3cccc(F)c3)S2)cc1 (stereo not drawn)	-22%
CN(CC(=O)Nc1ccc(Cl)c(C(F)(F)F)c1)C(=O)c1ccccc1SCC(=O)N1CCCC1	6%
CCOc1nc(Nc2cc(Cl)ccc2OC)nc(OCC)n1	7%
Cc1ccc(-c2nn3c(=O)cc(CN4CCN(C(=O)/C=C/c5ccccc5)CC4)nc3s2)cc1	15%
Cc1ccc(C)c(NC(=O)C(CC(C)C)N2Cc3ccccc3C2=O)c1 (stereo not drawn)	3%
Cc1ccc(NC(=O)COc2cccc3c2OC(C)(C)C3)c(O)c1	-7%
CCC(c1nnnn1Cc1ccco1)N(CCc1ccccc1)Cc1cc2cccc(C)c2[nH]c1=O (stereo not drawn)	-5%
C#CCn1cnc2c(oc3ccccc32)c1=O	-16%
CN(CC(=O)Nc1ccccc1Br)C(=O)c1ccccc1Cc1ccccc1	-4%
COCCCNC(=O)C(C#N)c1nc2ccccc2nc1N1CCN(Cc2ccccc2)CC1 (stereo not drawn)	7%
COc1cc(/C=N/Nc2nc(C)nc3c2cnn3-c2ccccc2)ccc1O	8%
Cc1ccc(-n2nc(C)c3c(C)cc(=O)n(CC(=O)Nc4cc(Cl)ccc4C)c32)cc1	2%
Cc1ccc(-n2c(N)c(C(=O)Nc3c(C)n(C)n(-c4ccccc4)c3=O)c3nc4ccccc4nc32)cc1	-17%
O=C(NC(=S)Nc1ccc(N2CCOCC2)cc1)c1ccc2c(c1)OCCO2	?
Cc1ncn(C23CC4CC(CC(O)(C4)C2)C3)n1	-3%
Cc1ccc(C)c(NC(=O)C2CC(=O)N(C3CCCCC3)C2)c1 (stereo not drawn)	6%
COc1ccccc1N(CC(=O)NCCN1CCOCC1)S(=O)(=O)c1ccc(C)cc1	-17%
CC1CCC(NC(=O)COC(=O)CNC(=O)c2ccc3ccccc3c2)CC1 (stereo not drawn)	-18%
COc1cc2c(cc1OC)C(Nc1ccccc1)=NC(C)(C)C2	0%
O=C(Nc1sc2c(c1C(=O)O)CCCC2)c1cccs1	-8%
O=C(NC1CCN(c2ncccn2)CC1)c1ccccc1Cl	-10%
CCOC(=O)N1CCN(Cc2nc3c(c(=O)[nH]c(=O)n3C)n2CCCc2ccccc2)CC1	14%
COc1ccnc(CSC(N)=Nc2ccccc2OC)c1	?
CN(C)P(=NC(=O)COc1ccc(Cl)cc1Cl)(N(C)C)N(C)C	1%
Cc1cc(O)c(-c2cc(C(=O)Nc3sc4c(c3C(=O)NCc3ccco3)CCC4)[nH]n2)cc1C	8%
COc1ccc(OC)c(CNC(=O)CCNC(=O)Cn2ccc3ccccc3c2=O)c1	10%
CC12CN3CC(C)(CN(C1)C3c1cc(Br)ccc1O)C2=O (stereo not drawn)	-12%
COc1ccc(C2c3[nH]c4ccccc4c3C[C@H]3C(=O)N(CCCO)CC(=O)N23)cc1OC (stereo partly drawn)	2%
CC(CCc1ccccc1)NC(=O)CCNC(=O)Cn1ccc2ccccc2c1=O (stereo not drawn)	18%
COc1ccccc1NC(=O)c1nnn(CC(=O)Nc2cc(C)cc(C)c2)c1N	7%
O=C(CSc1nnc(-c2cccc(F)c2)o1)NC1CCCC1	6%
COc1ccc(-c2nc3ccccc3c(=O)n2CCOc2ccc(C)cc2C)cc1	-4%
CCNC(=O)C(CCSC)NS(=O)(=O)c1ccc(C)cc1 (stereo not drawn)	4%
Cc1cnc(C(=O)OCC(=O)NC(=O)c2ccccc2)cn1	-14%
O=C(C1CCC(CNS(=O)(=O)c2cccs2)CC1)N1CCCCC1 (stereo not drawn)	-6%
COc1cccc(/C=C2\SC(N3CCC(C)CC3)=NC2=O)c1OC	-25%
O=c1c(Cl)c(N2CCN(c3ccc(F)cc3)CC2)cnn1C12CC3CC(CC(C3)C1)C2	4%
CCC1(c2ccc(F)cc2)NC(=O)N(CC(=O)Nc2cccc(S(=O)(=O)N3CCOCC3)c2)C1=O (stereo not drawn)	15%
COc1cc2c(cc1OC)CN(C(=O)c1ccc(S(=O)(=O)N(C)c3ccccc3)cc1)CC2	1%
Cc1cccc(-c2noc(-c3c(C)noc3C)n2)c1	6%
CNC(=O)c1ccc(N(Cc2ccccc2C)S(C)(=O)=O)cc1	8%
CCN1CCN(Cc2nc(N)nc(Nc3ccc(C)c(C)c3)n2)CC1	-15%
Cc1ccc(NC(=O)CCC(=O)NNC(=O)Nc2cccc(Cl)c2)c(C)c1	-6%
COc1cccc2c1Oc1nc(-c3ccccc3)nc(SCC(=O)Nc3ccccc3)c1C2	-3%
O=S(=O)(c1cc(Cl)cc(Cl)c1)N1CCCC1c1nc2ccccc2s1 (stereo not drawn)	24%
CS(=O)(=O)c1cccc(-c2nnc(NC(=O)c3ccc(S(=O)(=O)N4CCCC4)cc3)o2)c1	-18%
C/C(=N\NS(=O)(=O)c1ccc(Cl)cc1)c1ccc(NC(=O)c2ccco2)cc1	-14%
CS(=O)(=O)Nc1cccc(C2=NN(S(C)(=O)=O)C(c3ccc4c(c3)OCO4)C2)c1 (stereo not drawn)	-9%
O=C(/C=C/c1ccccc1)NCCOc1ccccc1	-16%
CN(C)C(=O)CCc1ccc2c3c([nH]c2c1)[C@]1(C)[C@@H](C(=O)N2CCOCC2)C[C@H](CC(=O)NCc2ccco2)C(=O)N1CC3	-1%

The list is partial; rates above refer to the full screens.
